Assay outcomes as filed in PubChem BioAssay.
YB-1 expr inh: YB-1 expression inhibition. actives 0.37% (n = 30,000). U2OS, qRT-PCR YB-1 vs CDIP delta delta Cp, 16 h; active compounds read high; zero = DMSO, each unit about twofold. delta delta Cp (YB-1 minus CDIP) (no concentration beside the values). AID 434959;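 active = delta delta Cp rounded down to an integer at or above 3, about 3 SD of DMSO wells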;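 also: higher means less YB-1 transcript or more CDIP transcript relative to DMSO; stock transfer was 100 nL into about 100 µL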
PD-1 reverse act: reversal of PD-1 mediated T-cell inhibition. 29,000 tested, under 10 active. primary human CD4 T cells, PD-L1 beads, CellTiter-Glo 96 h. activation, % (test concentration not listed);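 active = replicate mean of 50% or more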;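 also: 0% = median vehicle wells and 100% = positive control; 100 nL library stock added to about 50 µL; numbers are from one replicate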
MITF inh: inhibitors of MITF. inhibition, % (test concentration not listed). actives 0.28% (n = 37,000). TRPM1 promoter luciferase, luminescence, 24 h;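 active = most replicates at 85% or more, or half of them and the mean; inconclusive = half reach 85% but not the mean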;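 also: human melanocyte line stably carrying TRPM1 promoter luciferase reporter; 0% = vehicle wells and 100% = a positive control; the first replicate is given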
Shh pathway inh: blocks Sonic Hedgehog signaling | AID 2313 | inhibition, % (test concentration not listed) | actives 2.1% (n = 22,000) | Shh-LIGHT2 Gli-luciferase reporter, 30 h;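 active = replicate mean of 65% or more; inconclusive = mean lower but half the replicates past it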;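 also: pathway switched on by Shh-conditioned medium diluted 1 in 25 in low serum; 100 nL library stock added to about 40 µL; 0% = median of neutral wells and 100% = positive control level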
The depositor's hits bear a star; ? = inconclusive; nt = no result given. Not all compounds are listed, so the mix of outcomes need not match the whole.

entry	Structure	YB-1 expr inh	PD-1 reverse act	MITF inh	Shh pathway inh
1	C[C@@H]1CN([C@@H](C)CO)C(=O)c2cccc(NC(=O)c3cnccn3)c2O[C@@H]1CN(C)CC1CC1	0.7	0.8	-6	-70
2	O=C(Nc1sc2c(c1C(=O)NCc1ccco1)CCCC2)c1ccc(Br)cc1	nt	3.3	2	nt
3	CS(=O)(=O)N(CC(=O)Nc1ccccc1C(=O)O)c1cccc(Cl)c1	nt	-0.6	-16	nt
4	Cc1noc(C)c1S(=O)(=O)Nc1ccc2c(c1)C(=O)N([C@@H](C)CO)C[C@@H](C)[C@@H](CN(C)Cc1ccc(C(=O)O)cc1)O2	-0.3	1.1	-9	-11
5	Cc1noc(C)c1NC(=O)N(C)C[C@@H]1Oc2ccc(NC(=O)C3CCCCC3)cc2CC(=O)N([C@@H](C)CO)C[C@@H]1C	0.098	0.1	-18	-56
6	N#CC(C(=O)NCc1ccco1)c1ccccc1 (stereo not drawn)	nt	-1.3	5	nt
7	CC(C)NC(=O)N(C)C[C@@H]1Oc2c(NS(=O)(=O)c3ccc(Cl)cc3)cccc2C(=O)N([C@H](C)CO)C[C@@H]1C	-0.83	-2.3	17	-14
8	Cc1ccc(S(=O)(=O)Nc2cccc3c2O[C@@H](CN(C)S(=O)(=O)c2cn(C)cn2)[C@H](C)CN([C@@H](C)CO)C3=O)cc1	0.27	2.4	-3	-24
9	CS(=O)(=O)N(CC(=O)Nc1cccc(Cl)c1)c1ccc(Br)cc1	nt	1.1	-25	nt
10	C[C@H](CO)N1C[C@H](C)[C@H](CN(C)Cc2ccc3c(c2)OCO3)Oc2ccc(NC(=O)C3CCCCC3)cc2CC1=O	-0.19	0.1	2	0
11	Cc1ccc(S(=O)(=O)N(C)C[C@@H]2Oc3c(NC(=O)C4CCCCC4)cccc3C(=O)N([C@@H](C)CO)C[C@H]2C)cc1	0.091	nt	0	-16
12	CC(Oc1ccc(Cl)cc1Cl)C(=O)Nc1nnn(C)n1 (stereo not drawn)	nt	-1.9	5	nt
13	Cc1noc(C)c1S(=O)(=O)N(C)C[C@H]1Oc2ccc(NS(=O)(=O)c3ccc(Cl)cc3)cc2C(=O)N([C@@H](C)CO)C[C@H]1C	-0.089	0.8	14	3
14	Cc1cc(C(F)(F)F)nc(SCc2ccc(C(=O)O)o2)n1	0.036	1.6	-2	17
15	C[C@@H]1CN([C@@H](C)CO)C(=O)c2cc(NS(C)(=O)=O)ccc2O[C@@H]1CN(C)C	0.33	1.0	10	nt
16	Cc1noc(C)c1S(=O)(=O)Nc1ccc2c(c1)C(=O)N([C@H](C)CO)C[C@H](C)[C@H](CN(C)Cc1ccc(C(F)(F)F)cc1)O2	-0.59	nt	6	nt
17	COc1ccc(NC(=O)Nc2ccc3c(c2)C(=O)N([C@@H](C)CO)C[C@H](C)[C@@H](CN(C)C(=O)Nc2ccc(OC)cc2)O3)cc1	-0.068	-0.1	-2	-8
18	Cc1noc(C)c1S(=O)(=O)Nc1ccc2c(c1)C(=O)N([C@H](C)CO)C[C@H](C)[C@H](CN(C)S(=O)(=O)c1cn(C)cn1)O2	0.21	2.2	-19	nt
19	CCOc1ccccc1C(=O)Nc1ccc(S(=O)(=O)Nc2ccccn2)cc1	nt	-1.8	5	nt
20	C[C@H]1CN([C@@H](C)CO)C(=O)c2cc(NC(=O)Nc3ccc(F)cc3)ccc2O[C@H]1CN(C)C(=O)Nc1ccccc1	0.17	-0.1	12	-25
21	C[C@@H]1CN([C@H](C)CO)C(=O)c2cc(NS(=O)(=O)c3cn(C)cn3)ccc2O[C@@H]1CN(C)Cc1ccc(C(F)(F)F)cc1	-0.017	1.3	3	nt
22	Cc1ccc(S(=O)(=O)Nc2ccc3c(c2)C(=O)N([C@@H](C)CO)C[C@@H](C)[C@H](CN(C)C(=O)Nc2cccc4ccccc24)O3)cc1	0.21	2.7	2	nt
23	C[C@@H]1CN([C@H](C)CO)C(=O)Cc2cc(NS(=O)(=O)c3ccc(Cl)cc3)ccc2O[C@H]1CN(C)Cc1ccncc1	0.14	nt	0	11
24	O=C(Nc1scc(-c2ccccc2)c1C(=O)NCc1ccco1)c1ccccc1	nt	-0.2	-82	nt
25	CC1CCC2(C(=O)OC3OC(CO)C(O)C(O)C3O)CCC3(C(=O)O)C(=CCC4C5(C)CCC(O)C(C)(C)C5CCC43C)C2C1C (stereo not drawn)	1.3	0.7	4	4
26	NC(=O)c1c(NC(=O)CCSc2nc(-c3ccco3)cc(C(F)(F)F)n2)sc2c1CCC2	nt	-3.6	-3	nt
27	O=C(CSc1ncccn1)Nc1ccc(I)cc1	nt	0.3	-51	nt
28	CNC[C@H]1Oc2ccc(N(C)C)cc2CC(=O)N([C@@H](C)CO)C[C@H]1C	0.39	0.2	-3	22
29	COc1ccc(OCC(=O)Nc2ccc(-c3nc4cc(C)ccc4o3)cc2)cc1	nt	0.9	49	nt
30	Cc1cccc(-c2noc(CN(C)S(=O)(=O)c3cc(Cl)ccc3Cl)n2)c1	nt	0.3	-3	nt

4 entries already listed, sorted by SMILES length, largest number first.
entry	Structure	YB-1 expr inh	PD-1 reverse act	MITF inh	Shh pathway inh
11	Cc1ccc(S(=O)(=O)N(C)C[C@@H]2Oc3c(NC(=O)C4CCCCC4)cccc3C(=O)N([C@@H](C)CO)C[C@H]2C)cc1	0.091	nt	0	-16
30	Cc1cccc(-c2noc(CN(C)S(=O)(=O)c3cc(Cl)ccc3Cl)n2)c1	nt	0.3	-3	nt
2	O=C(Nc1sc2c(c1C(=O)NCc1ccco1)CCCC2)c1ccc(Br)cc1	nt	3.3	2	nt
24	O=C(Nc1scc(-c2ccccc2)c1C(=O)NCc1ccco1)c1ccccc1	nt	-0.2	-82	nt

Going on with the list.
entry	Structure	YB-1 expr inh	PD-1 reverse act	MITF inh	Shh pathway inh
31	C[C@H](CO)N1C[C@H](C)[C@@H](CN(C)S(=O)(=O)c2cn(C)cn2)Oc2c(NC(=O)NC3CCCCC3)cccc2C1=O	-0.034	1.1	-7	24
32	C[C@@H]1CN([C@@H](C)CO)C(=O)c2cc(NC(=O)Nc3cccc4ccccc34)ccc2O[C@H]1CN(C)Cc1ccncc1	0.24	0.2	10	-3
33	C/C=C1\C(OC2OC(CO)C(O)C(O)C2O)OC=C(C(=O)OC)C1CC(=O)OCC1C(C)C(OC(=O)CC2C(C(=O)OC)=COC(OC3OC(CO)C(O)C(O)C3O)/C2=C\C)CC1C(CO)CO (stereo not drawn)	1.1	nt	nt	-22
34	C[C@@H]1CN([C@H](C)CO)C(=O)Cc2cc(NC(=O)Cc3cn(C)c4ccccc34)ccc2O[C@H]1CN(C)S(=O)(=O)c1ccccc1	-0.025	nt	14	5
35	Cc1noc(C)c1S(=O)(=O)Nc1ccc2c(c1)CC(=O)N([C@@H](C)CO)C[C@H](C)[C@H](CN(C)C(=O)Nc1ccc3c(c1)OCO3)O2	1.1	nt	-12	27
36	Cn1c(/C(C#N)=C(/O)c2ccc(F)cc2)nc2ccccc21	-0.026	-2.9	2	-43
37	C[C@@H]1CN([C@H](C)CO)C(=O)c2cccc(NS(=O)(=O)c3cn(C)cn3)c2O[C@@H]1CN(C)Cc1ccc(-c2ccccc2)cc1	0.0048	1.3	-9	9
38	C[C@H](CO)N1C[C@H](C)[C@H](CN(C)S(=O)(=O)c2ccc(F)cc2)Oc2ccc(NC(=O)Nc3ccccc3)cc2C1=O	-0.33	1.5	-14	-13
39	C[C@H]1CN([C@@H](C)CO)C(=O)Cc2cc(NS(C)(=O)=O)ccc2O[C@@H]1CN(C)S(C)(=O)=O	0.4	2.0	-6	-6
40	O=C(NCc1ccc2c(c1)OCO2)c1ccc2c(=O)n(Cc3ccccc3)c(=S)[nH]c2c1	0.042	0.1	12	?
41	C[C@H](CO)N1C[C@H](C)[C@H](CN(C)C(=O)Nc2ccc(F)cc2)Oc2ccc(NC(=O)Cc3cn(C)c4ccccc34)cc2C1=O	-0.084	-2.0	9	-5
42	Cc1ccc(S(=O)(=O)Nc2ccc3c(c2)CC(=O)N([C@@H](C)CO)C[C@H](C)[C@H](CN(C)S(=O)(=O)c2ccc(C)cc2)O3)cc1	0.043	0.6	2	32
43	CC(=O)C(Sc1cc(C)nc(N)n1)C(=O)Nc1ccccc1 (stereo not drawn)	nt	-5.8	11	nt
44	COc1cccc2cc(-c3nnc(SCC(=O)Nc4ccc5ccccc5c4)n3C)oc12	nt	1.0	0	nt
45	CCC(Sc1nnc(-c2ccncc2)n1C)C(=O)Nc1c(C)cccc1C (stereo not drawn)	nt	0.5	-9	nt
46	Cc1cccc(OC(=O)C(Cc2ccccc2)N2C(=O)C3C4CCC(C4)C3C2=O)c1C (stereo not drawn)	nt	-3.4	21	nt
47	O=C1Nc2ccc(S(=O)(=O)NCC3CCCO3)c3cccc1c23 (stereo not drawn)	nt	2.7	20	nt
48	C[C@@H]1CCCCO[C@@H](CN(C)Cc2ccc(C(F)(F)F)cc2)[C@@H](C)CN([C@H](C)CO)C(=O)c2cc(NC(=O)Cc3ccccc3)ccc2O1	-0.31	-3.7	41	18
49	C[C@H]1CN([C@@H](C)CO)C(=O)Cc2cc(NC(=O)CCN3CCOCC3)ccc2O[C@H]1CN(C)C(=O)NC1CCCCC1	0.24	3.1	3	?
50	C[C@@H]1CN([C@H](C)CO)C(=O)Cc2cc(NC(=O)Cc3cn(C)c4ccccc34)ccc2O[C@H]1CN(C)Cc1ccc(Oc2ccccc2)cc1	-0.26	1.1	17	-7
51	FC(F)(F)c1ccc(-c2n[nH]c(=S)s2)nc1	0.068	-8.7	-14	-24
52	COc1ccc(S(=O)(=O)Nc2cccc3c2O[C@H](CN(C)Cc2ccc(Oc4ccccc4)cc2)[C@H](C)CN([C@@H](C)CO)C3=O)cc1	0.43	-1.7	6	27
53	COc1ccc(CN(C)C[C@@H]2Oc3c(NC(=O)C4CCCCC4)cccc3C(=O)N([C@H](C)CO)C[C@H]2C)cc1	-0.21	-4.0	35	10
54	Nc1nc(N2CCCC2)ncc1S(=O)(=O)c1ccc(C(F)(F)F)cn1	0.085	0.7	-3	-15
55	C[C@@H]1CN([C@H](C)CO)C(=O)c2cc(NC(=O)CCCN(C)C)ccc2O[C@@H]1CN(C)Cc1ccc(C(F)(F)F)cc1	-0.13	-0.1	0	9
56	COc1ccc(NC(=O)Nc2cccc3c2O[C@@H](CN(C)C)[C@H](C)CN([C@@H](C)CO)C3=O)cc1	-0.41	nt	-12	-28
57	COc1ccc(CN(C)C[C@@H]2Oc3c(NC(=O)c4nc5ccccc5s4)cccc3C(=O)N([C@@H](C)CO)C[C@H]2C)cc1	0.13	nt	0	21
58	CN(CC(=O)Nc1ccccc1C(F)(F)F)S(=O)(=O)c1ccc(F)cc1	nt	2.4	-1	nt
59	O=C1CSC2=NC3=C(CCc4ccccc43)C(c3cccs3)N12 (stereo not drawn)	-0.2	-0.3	-7	-8
60	CC(C)c1ccc(N2C=Nc3ccc(C(C)C)cc3C2)cc1	-0.18	-1.6	-2	6

Following part.
entry	Structure	YB-1 expr inh	PD-1 reverse act	MITF inh	Shh pathway inh
61	COc1cccc(N(CC(=O)Nc2ccc(C)c(Cl)c2)S(C)(=O)=O)c1	nt	0.5	9	nt
62	Cc1cc(OCc2ccc(Br)cc2)nc(-c2ccccc2O)n1	-0.1	0.6	-11	-1
63	C[C@@H]1CN([C@@H](C)CO)C(=O)c2cc(NC(=O)Nc3ccc(F)cc3)ccc2O[C@@H]1CN(C)S(=O)(=O)c1ccccc1	-0.42	-0.1	6	nt
64	Cn1c(=O)c(Nc2ccccc2)c2c3c(cccc31)C(=O)c1ccccc1-2	-0.049	1.3	0	-38
65	C[C@H]1CN([C@@H](C)CO)C(=O)c2cccc(NC(=O)C3CCOCC3)c2O[C@@H]1CN(C)S(=O)(=O)c1ccc(Cl)cc1	-0.41	2.8	-3	-6
66	C[C@@H]1CN([C@H](C)CO)C(=O)c2cc(NC(=O)C3CCCCC3)ccc2O[C@H]1CN(C)S(=O)(=O)c1cn(C)cn1	-0.2	0.2	-13	-33
67	C[C@@H]1CN([C@H](C)CO)C(=O)c2cccc(NC(=O)C3CC3)c2O[C@@H]1CN(C)S(=O)(=O)c1cccs1	-0.41	0.2	3	10
68	CS(=O)(=O)N(CC(=O)Nc1ccccc1Sc1ccccc1)c1cccc(Br)c1	nt	0.1	10	nt
69	CCc1ccc(C2C(C#N)=C(C)NC3=C2C(=O)CC(C)(C)C3)cc1 (stereo not drawn)	-0.32	-1.0	33	nt
70	COc1ccc(NC(=O)Nc2cccc3c2O[C@H](CN(C)C(=O)NC2CCCCC2)[C@@H](C)CN([C@@H](C)CO)C3=O)cc1	0.14	0.5	-5	-5
71	C[C@@H]1CN([C@@H](C)CO)C(=O)c2cc(NC(=O)Cc3cn(C)c4ccccc34)ccc2O[C@H]1CN(C)Cc1ccc(-c2ccccc2)cc1	0.11	0.3	10	-7
72	COC(=O)c1ccccc1NC(=O)Cn1cncc1-c1ccc([N+](=O)[O-])cc1	nt	1.0	4	nt
73	Cc1noc(C)c1NC(=O)N(C)C[C@@H]1Oc2c(NC(=O)C3CCCCC3)cccc2C(=O)N([C@H](C)CO)C[C@@H]1C	-0.35	1.2	-4	4
